From PubChem
GALK inh – blocks human galactokinase activity; actives 0.007% (n = 270,000); Potency, µM (doses to about 57.5 µM), without a hit: top-dose activity change, negative = inhibition, usual class: inhibitors; Purified GALK, Kinase-Glo residual ATP luminescence; P51570; note: potency is the fitted concentration of half-maximal effect; % is set by controls: 0 for no effect and ±100 for the full control effect
Target sequence (P51570 whole entry, looked up): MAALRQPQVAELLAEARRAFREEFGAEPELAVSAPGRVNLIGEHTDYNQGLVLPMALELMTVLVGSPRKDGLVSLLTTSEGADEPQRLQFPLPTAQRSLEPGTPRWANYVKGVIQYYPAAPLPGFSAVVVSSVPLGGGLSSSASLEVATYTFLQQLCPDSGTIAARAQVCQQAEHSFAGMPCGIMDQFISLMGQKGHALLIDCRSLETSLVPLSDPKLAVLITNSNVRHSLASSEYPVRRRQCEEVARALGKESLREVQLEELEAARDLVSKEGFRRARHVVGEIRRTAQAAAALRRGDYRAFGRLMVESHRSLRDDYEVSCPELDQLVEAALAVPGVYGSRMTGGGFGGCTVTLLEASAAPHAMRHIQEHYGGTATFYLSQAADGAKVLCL
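Compounds were pin-transferred into ATP buffer (35 uM final), then GALK plus galactose (5 nM, 100 uM final) was added. After 1 h at room temperature, Kinase-Glo Plus was added and luminescence read after 10 min.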
hERG WT inh – inhibitors of human wildtype KCNH2 potassium channel. AID 720551. U2OS, BacMam KCNH2, thallium flux FluxOr; active compounds read low. Q12809. actives 0.37% (n = 340,000). activity change, % at 1.84 µM;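 active = maximum activity change below -70%; inconclusive = maximum activity change between -70% and -50%; inactive = maximum activity change above -50%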; note: % is set by controls: 0 for no effect and ±100 for the full control effect
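U2OS cells were transduced with wild-type KCNH2 virus (2.03 x 10^8 / mL) for 4 h at room temperature, then cultured overnight at 37 C. Thallium flux was read with FluxOr dye. Rate constants were normalized to DMSO controls.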
MLL CXXC-DNA inh – blocks binding of human MLL CXXC domain to DNA; Q03164; MLL-CXXC / FITC-HOXA9 DNA fluorescence polarization; Potency, µM (top dose mostly 115 µM), for inactives: at the highest dose activity change, negative = inhibition, most hits filed as inhibitors; actives 0.037% (n = 290,000); active = well fitted inhibition curve with a large enough effect in the polarisation, with a control signal flat, not every such curve was filed as active; inconclusive = small, poorly fitted or top-dose-only effect, or effect the other way, or a change in a side signal; inactive = no such curve, though single readings can be large or run the other way; the % refers to the polarisation; note: potency is the fitted concentration of half-maximal effect
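Fluorescence polarization: 7 uM MLL-CXXC (stock) preincubated 5 min with compounds, then 50 nM fluorescein-HOX-A9 DNA (stock) added; 30 min ambient. Buffer 50 mM Tris-HCl pH 7.5, 50 mM NaCl, 1 mM DTT, 0.05% BSA.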
Giardia kill – kills Giardia lamblia; activity change, % at 7.66 µM, hits read low; Giardia lamblia trophozoite viability; actives 0.15% (n = 340,000); in the data active = activity change below about -80%; inconclusive = between about -30% and that limit;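 note: parasites exposed to compound for two days anaerobically before the ATP read; % is set by controls: 0 for no effect and ±100 for the full control effect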
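Killing of trophozoites was scored by loss of ATP luminescence after a 48 hrs anaerobic exposure to compounds at 37 deg C, using 100 cells per well.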
Coupling enz – coupling enzyme interference in Giardia aldolase counter-screen | coupling enzyme system counterscreen, AmpLite Red fluorescence | activity change, negative = inhibition, % at 58.2 µM, hits read low | actives 0.67% (n = 290,000); in the data active = activity change below about -30%; note: % is set by controls: 0 for no effect and ±100 for the full control effect
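Fluorescence at 525 nm excitation and 598 nm emission measured inhibition of the coupled detection system without aldolase. Compounds (at 57.5 uM final) were preincubated 10 min at room temperature with coupling enzyme reagent before a 20 min substrate/AmpLite Red step.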
KCNH2 3.1 inh – KCNH2 3.1 (human) potassium channel inhibition. activity change, % (tested at about 1.8 µM). actives 0.95% (n = 340,000). U2OS KCNH2 3.1, thallium flux FluxOr; active compounds read low. AID 720553;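 active = maximum activity change below -70%; inconclusive = maximum activity change from -70% to -50%; inactive = maximum activity change above -50%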;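 note: thallium influx rate constant from kinetic fluorescence after stimulation buffer; % is set by controls: 0 for no effect and ±100 for the full control effect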
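Normalized rate constant (relative to positive and negative DMSO controls) derived from a 2 min kinetic fluorescence read after stimulation; U2OS cells expressing the 3.1 isoform via virus at 1.77 x 10^8 /mL.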
TRPV1 ag – human TRPV1 agonism; Q8NER1; TRPV1-expressing cells, Fluo-8 calcium influx, agonist mode; activation, % at 8.33 µM; actives 0.19% (n = 320,000); in the data active = activation above about 80%; inconclusive = between about 30% and that limit; note: 0% is about no effect
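Fluo-8 calcium influx in TRPV1-expressing cells, kinetic read (ex 480/em 520 nm). Compound added and read 3 min for agonist activity, followed by capsaicin at EC20 final and 2 min further read for enhancement.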
Menin-MLL TR inh – displaces Texas Red mutant MLL peptide from human menin. Menin + Texas Red MLL mutant peptide, fluorescence polarization. Potency, µM (series often up to 61.6 µM), without a hit: top-dose FP activity change, negative = inhibition, usual class: inhibitors. actives 0.23% (n = 270,000). AID 1768; active = well fitted inhibition curve with a large enough effect in the polarisation, with a control signal flat, not every such curve was filed as active; inconclusive = small, poorly fitted or top-dose-only effect, or effect the other way, or a change in a side signal; inactive = no such curve, though single readings can be large or run the other way; the % refers to the polarisation; note: potency is the fitted concentration of half-maximal effect; % of control where 0% means no effect; many of its hits are not listed in these tables
Target sequence (O00255 whole entry, looked up): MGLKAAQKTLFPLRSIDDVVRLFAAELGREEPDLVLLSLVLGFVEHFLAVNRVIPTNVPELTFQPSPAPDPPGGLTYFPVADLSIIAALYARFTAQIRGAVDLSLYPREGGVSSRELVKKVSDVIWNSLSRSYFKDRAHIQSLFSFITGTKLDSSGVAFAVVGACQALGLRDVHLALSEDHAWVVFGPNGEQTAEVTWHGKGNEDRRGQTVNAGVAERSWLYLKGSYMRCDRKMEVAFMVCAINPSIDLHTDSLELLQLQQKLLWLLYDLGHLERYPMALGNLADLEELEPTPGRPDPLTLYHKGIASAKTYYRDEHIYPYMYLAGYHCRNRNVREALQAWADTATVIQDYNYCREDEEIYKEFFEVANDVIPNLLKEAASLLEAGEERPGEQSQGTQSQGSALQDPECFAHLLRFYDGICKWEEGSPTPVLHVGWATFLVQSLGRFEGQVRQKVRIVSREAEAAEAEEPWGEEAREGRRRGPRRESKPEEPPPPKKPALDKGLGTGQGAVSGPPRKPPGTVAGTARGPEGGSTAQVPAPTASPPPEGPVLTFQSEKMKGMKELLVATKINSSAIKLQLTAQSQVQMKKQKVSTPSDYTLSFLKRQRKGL
USP2a block – inhibitors of human ubiquitin-specific protease USP2a; O75604; USP2 core, Ub-CHOP2 coupled fluorogenic reporter, 485/531; Potency, µM (highest dose often 38.3 µM), without a hit: at the highest dose activity change, negative = inhibition, hits mostly inhibitors; actives 0.01% (n = 330,000);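 note: potency is the fitted concentration of half-maximal effect; plate controls were DMSO wells for no effect and full inhibition by NEM control for full effect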
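USP2 core (10nM final) preincubated 30min RT with compound in 20mM Tris-HCl pH 8.0, 2mM CaCl2, 2mM beta-mercaptoethanol, 0.05% CHAPS; 25nM Ub-CHOP2 plus 25nM reporter substrate added, fluorescence (Ex485/Em531) read after 60min.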
B2AR arrestin – recruits beta-arrestin to the human beta2-adrenergic receptor. AID 492947. Potency, µM (series often up to 46.1 µM), for the others: at the highest dose activation, actives largely listed as activators. actives 0.02% (n = 330,000). beta-arrestin recruitment to beta2AR, cell-based reporter;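 note: potency is the fitted concentration of half-maximal effect; 0% = DMSO controls and full agonism = EC100 isoproterenol or metaproterenol; nearly all actives have a fitted effect of over 65% in size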
Numbers without * were called inactive; i = inactive; ? = inconclusive; / = no result given; & = joins results of further samples; [ ] = remark or other dose. Unless noted, calls come from the whole dose curve; as a rule, active = well fitted curve in the direction sought with a large enough effect; inconclusive = small, poorly fitted or top-dose-only effect, or another doubt; inactive = no such curve, though single readings can be large; an effect the other way counts as inactive or inconclusive. Not all compounds are listed (hit frequency here may not be typical).

SMILES | GALK inh | hERG WT inh | MLL CXXC-DNA inh | Giardia kill | Coupling enz | KCNH2 3.1 inh | TRPV1 ag | Menin-MLL TR inh | USP2a block | B2AR arrestin
CC1Cc2ccccc2N1C(=O)CSc1nc2c(c(=O)n(C)c(=O)n2C)n1Cc1ccccc1 (stereo not given) | 3% | -5 | -5% | 13 | 2 | 1 | 10 | 3% | 1% | 0.4%
O=S(=O)(/C=C/c1ccccc1)Nc1ccc2c(c1)OCO2 | -3% | 3 | -18% | -6 | 1 | -13 | 1 | -11% | 0% | -0.2%
N#C/C(=C\Nc1ccccn1)S(=O)(=O)c1ccc(Cl)cc1 | -2% | 6 | -6% | 29 | 0 | -7 | 19 | / | -1% | 0.1%
O=C1CC(c2ccccc2)CC(O)=C1C=NCc1ccc(Cl)c(Cl)c1 (stereo not given) | 2% | -6 | -17% | 4 | -1 | -21 | 1 | ? | 4% | 0.6%
O=C(NCCCc1ccccc1)c1cc(COc2c(F)cccc2F)on1 | 8% | 3 | 7% | -6 | 1 | -6 | ? | -1% | -7% | -0.9%
COc1ccccc1NC(=O)CCC(=O)OCc1cccc([N+](=O)[O-])c1 | -2% | -6 | 21% | -11 | 1 | 10 | 0 | 0% | 4% | -1.0%
O=C(O)/C=C/C(=O)Nc1cccc2cccnc12 | -2% | -17 | 17% | 3&-27 | -3 | -6 | 2&4 | -10% | 6% | -0.5%
Cc1ccccc1NC(=O)Cc1cccc(C(F)(F)F)c1 | 1% | -13 | -9% | -10 | 0 | -3 | 5 | 5% | 0% | 0.1%
CC(=O)c1cccc(NC(=O)C2CCN(C(=O)c3ccc([N+](=O)[O-])cc3)CC2)c1 | 1% | 25 | 12% | -9 | 4 | -24 | -3 | 26% | 10% | 0.2%
CCN(CC)C(=O)N1CCN(S(=O)(=O)c2ccccc2)CC1 | 1% | -5 | -8% | 0 | 0 | -3 | 2 | -6% | 3% | 0.1%
O=c1oc2ccccc2cc1-c1cn2ccccc2n1 | 18% | -7 | 22% | ? | -5 | 7 | 13 | 6% | 10% | -0.6%
Cc1ccc(-c2noc(CSc3nnnn3C3CCCCC3)n2)cc1 | 2% | -4 | -5% | 6 | 3 | 12 | ? | -9% | -7% | 0.4%

Gathered by group, the entries above with four or more nitrogen atoms.
SMILES | GALK inh | hERG WT inh | MLL CXXC-DNA inh | Giardia kill | Coupling enz | KCNH2 3.1 inh | TRPV1 ag | Menin-MLL TR inh | USP2a block | B2AR arrestin
CC1Cc2ccccc2N1C(=O)CSc1nc2c(c(=O)n(C)c(=O)n2C)n1Cc1ccccc1 (stereo not given) | 3% | -5 | -5% | 13 | 2 | 1 | 10 | 3% | 1% | 0.4%
Cc1ccc(-c2noc(CSc3nnnn3C3CCCCC3)n2)cc1 | 2% | -4 | -5% | 6 | 3 | 12 | ? | -9% | -7% | 0.4%

Other compounds follow:
SMILES | GALK inh | hERG WT inh | MLL CXXC-DNA inh | Giardia kill | Coupling enz | KCNH2 3.1 inh | TRPV1 ag | Menin-MLL TR inh | USP2a block | B2AR arrestin
COc1ccc(-c2nc3cc(NC(=O)c4ccc5c(c4)OCO5)ccc3o2)cc1 | 5% | -10 | 7% | -6 | 2 | -4 | 6 | -19% | -1% | -0.3%
Cc1ccccc1C(=O)NC1CCCN(Cc2ccccc2F)C1 (stereo not given) | 3% | 0 | 6% | 33[activator] | 1 | 7 | 6 | ? | 0% | -0.5%
Cc1ccc(C(=O)N2CCNC(=O)C2CC(=O)Nc2ccccc2)cc1 (stereo not given) | 6% | -2 | ? | -10 | 3 | 16 | 2 | 1% | 5% | -0.3%
Cc1cc(NC(=O)c2cc(-c3ccccc3Cl)nc3ccccc23)no1 | 5% | 1 | -11% | -1 | -7 | 2 | 0 | 33%[activator] | -8% | 0.2%
c1ccc(Cc2nc3ccccc3o2)cc1 | 2% | -7 | -4% | 8 | 3 | 0 | 2 | 3% | 4% | 0.0%
CC(=O)Oc1oc(-c2ccccc2)nc1C=Nc1ccc(N(C)C)cc1 | 1% | -3 | 18% | -8 | 1 | 1 | 4 | / | 9% | 0.4%
NS(=O)(=O)c1ccc(S(=O)(=O)N2CCCC2)cc1 | 0% | -1 | -9% | 18 | 0 | -1 | -1 | 8% | 3% | -0.3%
O=C(c1ccco1)N1CCN(CC(O)Cn2c3ccccc3c3ccccc32)CC1 (stereo not given) | 0% | 20 | -9% | 12 | 3 | 9 | 4 | 1% | -11% | -0.4%
COc1ccc(N2CCN(C(=O)NC(=O)c3ccccc3)CC2)cc1 | -2% | -31 | -5% | -8 | / | -3 | 0 | / | -2% | 0.0%
Nc1nc(SCc2ccc(Cl)cc2)ns1 | -1% | 2 | -6% | ? | -6 | 5 | -3 | 5% | -2% | -0.5%
CCS(=O)(=O)N1CCN(c2ccc(Cl)cc2[N+](=O)[O-])CC1 | 0% | 4 | -1% | 35[activator] | 5 | 9 | 3 | -29% | 4% | -0.3%
O=C(CNC(=O)c1cc2c(s1)CCC2)Nc1ccccc1Br | 0% | -15 | 55%[activator] | 5 | 4 | 1 | 4 | 16% | -8% | -0.2%
COc1ccc(CNC(=O)c2cc(-c3ccccc3OC)on2)cc1 | -11% | -6 | 2% | -17 | 3 | -13 | ? | -1% | -1% | 0.1%
COCCCNc1c2c(nc3nnnn13)CCCC2 | 1% | -4 | 1% | -10 | 3 | -8 | 1 | 3% | 1% | -0.2%
O=C(CSc1ccccc1Cl)N1CCC(c2nc3ccccc3s2)CC1 | -3% | 3 | 10% | 6 | -1 | 3 | ? | -14% | 0% | -0.1%
COc1ccc(CCn2c(C)cc(C(=O)CCl)c2C)cc1OC | -3% | 4 | -5% | -2 | -1 | -4 | 2 | -22% | 0% | 0.3%
S=C(NCc1ccco1)Nc1cccc(Cl)c1Cl | 2% | 1 | 5% | 26 | -1 | 12 | ? | / | 0% | -0.4%
CCN(CC(=O)Nc1ccccc1-c1ccccc1)Cc1nc2ccccc2c(=O)[nH]1 | 2% | -7 | 2% | 16 | 3 | -40 | 11 | ? | 2% | 0.4%
CC(C(=O)Nc1cccnc1)C1Sc2ccccc2NC1=O (stereo not given) | 3% | -4 | -14% | -4 | -5 | -11 | 4 | -11% | -1% | 3.2%
CCn1c(C)c(C(C)=O)c(NCc2ccccc2)nc1=S | 2% | -1 | -4% | 10 | -8 | 6 | 0 | 0% | 0% | -0.1%
CCCC[C@]12Cc3cc(C#N)ccc3C(O1)c1c(cc(C)n(Cc3ccccc3)c1=O)O2 | / | / | -2%[23 µM] | / | -6 | / | i | -7%[11.7 µM] | 2%[7.66 µM] | 0.5%[9.22 µM]
CCOC(=O)C1CCN(C2CCN(C(=O)c3oc4c(F)cccc4c3C)CC2)CC1 | 6% | -12 | -13% | 13 | / | ? | 1 | / | 5% | -0.9%
O=C(O)C(c1ccccc1)C1(O)CCCC1 (stereo not given) | 4% | -2 | 0% | 22 | 1 | 0 | 0 | 1% | 2% | 0.1%
CCCCN(C(=O)c1ccccc1F)c1c(N)n(CCC)c(=O)[nH]c1=O | 0% | -20 | -10% | 5 | 1 | 8 | 2 | -22% | 5% | 0.0%
CCc1c(O)nc(SCC(=O)N2CCCCC2)n(-c2ccccc2C)c1=O | 3% | 32 | 10% | -2 | 0 | -3 | -1 | 3% | 6% | -0.1%
O=C(NCCCN1CCOCC1)c1ccc(Sc2ccc(F)cc2)c([N+](=O)[O-])c1 | 2% | 3 | -2% | 0 | 7 | -9 | 13 | 2% | 4% | -0.1%
O=C(NCC(=O)N(Cc1ccco1)C(C(=O)NC1CCCC1)c1ccncc1)c1cccs1 (stereo not given) | -3% | 1 | -4% | -5 | 0 | 0 | 7 | -14% | 0% | 2.8%
O=C1c2c(O)cc(O)cc2OC(c2ccc(O)c(O)c2)C1O (stereo not given) | / | / | -10% | / | 1 | / | / | 11% | / | /
COc1cccc(C2CC(C(F)(F)F)n3ncc(C(=O)NCc4ccco4)c3N2)c1 (stereo not given) | 1% | -8 | 8% | 6 | -2 | -11 | 7 | 8% | 1% | -0.2%
CC(C(N)=O)N1C(=O)C2C3C=CC(C3)C2C1=O (stereo not given) | -2% | -12 | 2% | 8 | 1 | -9 | 0 | 35%[activator] | -8% | -0.1%
COc1ccc(C(C)(C)C)cc1NC(=O)COC(=O)c1ncc(Cl)c(Cl)c1Cl | 0% | -3 | -7% | -7 | -2 | 8 | 8 | 0% | 0% | -0.1%
Cc1ccc2nc(SCC(=O)NCc3cccs3)c(C#N)cc2c1 | / | -6 | 22% | 24 | 0 | 17 | 0 | -24% | 3% | 0.2%
COc1ccccc1Oc1nc2c(c(=O)n(Cc3ccccc3F)c(=O)n2C)n1C | -3% | -16 | -14% | 5 | -1 | -12 | -1 | ? | -2% | 0.0%
CCOC(=O)C1=C(Nc2ccccc2)CC(C)(O)C(C(=O)OCC)C1c1ccccc1 (stereo not given) | 3% | -1 | 4% | 4 | 3 | 10 | ? | -14% | -1% | 0.1%
CCN(CC)CCNC(=O)Cn1cnc2sc(C)c(S(=O)(=O)N3CCC(C)CC3)c2c1=O | 8% | 5 | -3% | -1 | 0 | -4 | 4 | 12% | 1% | -0.5%
CCC1CCCCN1CCCNC(=O)CCNC(=O)Cn1cnc2ccccc2c1=O (stereo not given) | 10% | 2 | 25% | 3 | 1 | -7 | -1 | -7% | -1% | -0.3%
O=C(CN1CCN(Cc2ccccc2)CC1)N/N=C/c1cccnc1 | -2% | 1 | -12% | 18 | 1 | 18 | / | / | 1% | 0.2%
